Assay outcomes (PubChem)
gsp agonist – agonists of gsp mutant (McCune-Albright syndrome); AID 624287; gsp mutant cells, cAMP HTRF, 30 min; control for the full effect not named in the record; Potency, µM (titrated, usually from 76.9 µM), for the others: at the top dose activation (cAMP increase), hits mostly activators; 340,000 compounds, 0.13% hits; active = well fitted activation curve with a large enough effect; inconclusive = small, poorly fitted or top-dose-only effect, or another doubt; inactive = no such curve, though single readings can be large or run the other way; cell line not stated here;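 also: phosphodiesterase inhibitor Ro 20-1724 added with compounds to block cAMP breakdown; potency is read from the fitted curve at half-maximal effect; nearly all actives have a fitted effect of over 60% in size; about a fifth of the inactives were tested at one dose only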
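Cells stably selected in G418 were plated at 2000/well, grown 16-24 hr, then given compounds in DMSO with the PDE inhibitor […] (300 uM solution added) for 30 min at 37C; cAMP was read by HTRF.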
Menin MLL FP FL – displaces fluorescein MLL peptide from human menin | Fluorescence polarization, fluorescein-MLL peptide displacement from menin | FP activity change, % at 61.4 µM | 290,000 tested, under 10 active | AID 1766; inconclusive = falling polarisation curve, or a change in total fluorescence; inactive = total fluorescence flat and polarisation flat or rising; no compound was filed as active; the % refers to the polarisation; negative = inhibition;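 also: % of control where 0% means no effect; inhibitors lower the polarisation; unlabelled MLL peptide was the positive control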
ClpP mod – qHTS Assay for Activators of ClpP | ATP-dependent Clp protease proteolytic subunit (Bacillus subtilis (strain 168)), P80244 | purified B. subtilis ClpP, FRET peptide cleavage, 20 min | Potency, µM (top dose mostly 57.5 µM), for the others: at the highest dose activity change, negative = active | 340,000 compounds, 1.9% hits | AID 651965, 2013; active = well fitted falling curve with a large enough effect; inconclusive = small, poorly fitted or top-dose-only effect; inactive = no such curve, though single readings can be large or run the other way; also: potency is read from the fitted curve at half-maximal effect; the source files actives as falling curves though it sought activators and does not explain the sign; nearly all actives have a fitted effect of over 65% in size; many hits overshoot -100%
Target sequence (P80244 whole entry, looked up): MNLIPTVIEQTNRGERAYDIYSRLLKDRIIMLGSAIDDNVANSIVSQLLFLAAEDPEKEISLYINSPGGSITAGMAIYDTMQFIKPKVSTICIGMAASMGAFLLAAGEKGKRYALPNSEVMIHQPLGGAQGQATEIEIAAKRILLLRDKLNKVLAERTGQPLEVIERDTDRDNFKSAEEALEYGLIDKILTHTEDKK
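ClpP 10 microg/mL final, pH 8 Tris/KCl buffer with BSA, glycerol, Tween-20; compound pinned in; FRET-FV substrate; RT 20 min; Ex320/Em430; ΔFRET vs ADEP 5.8 microM, DMSO, no enzyme.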
D2 potentiator – positive allosteric modulators of human D2 dopamine receptor; P14416; 360,000 compounds, 0.23% hits; AID 624464; DiscoveRx D2 beta-arrestin cells, luminescence, 90 min; 100% = 57 uM dopamine signal; potentiation, % (concentration not given with the values); active = potentiation of 50% or more; inconclusive = 30% to 50%; inactive = 30% or less;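 also: tested on top of an EC20 dose of dopamine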
Target sequence (P14416 whole entry, looked up): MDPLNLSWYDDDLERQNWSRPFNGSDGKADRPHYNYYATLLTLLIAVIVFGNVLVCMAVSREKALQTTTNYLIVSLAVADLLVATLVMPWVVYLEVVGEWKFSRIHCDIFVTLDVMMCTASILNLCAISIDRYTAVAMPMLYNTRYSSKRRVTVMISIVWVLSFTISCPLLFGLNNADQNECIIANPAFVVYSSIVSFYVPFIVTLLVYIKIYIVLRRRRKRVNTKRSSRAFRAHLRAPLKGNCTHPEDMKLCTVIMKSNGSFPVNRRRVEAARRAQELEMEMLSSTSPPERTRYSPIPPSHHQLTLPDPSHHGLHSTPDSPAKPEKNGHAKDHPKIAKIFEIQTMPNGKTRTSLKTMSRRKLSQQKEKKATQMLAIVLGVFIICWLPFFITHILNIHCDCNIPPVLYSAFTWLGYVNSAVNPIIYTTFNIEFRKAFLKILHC
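D2 cells co-treated with compound plus 50 nM dopamine (EC20) for 90 min at 37 deg C to detect potentiation. Beta-arrestin recruitment was read as enzyme-fragment luminescence after 1 h at ambient temperature. Full response was set by 57 uM dopamine.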
gsp antag – antagonists of gsp mutant (McCune-Albright syndrome); gsp-mutant cells, cAMP HTRF, 30 min; control for the full effect not named in the record; Potency, µM (highest dose often 76.9 µM), for inactives: at the highest dose activity change, negative = inhibition, actives largely listed as inhibitors; 340,000 compounds, 0.4% hits; AID 624288; active = falling curve of any shape with a large fitted effect; inconclusive = falling curve, mostly with a smaller effect; inactive = flat or rising curve; cell line not stated here;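 also: intracellular cAMP measured with PDE inhibitor Ro 20-1724 present during compound exposure; potency is read from the fitted curve at half-maximal effect; % is scaled to controls: 0 for no effect and ±100 for the full control effect; nearly all actives have a fitted effect of over 65% in size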
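Measurement of cellular cAMP by homogeneous time-resolved fluorescence following a 30 min compound exposure at 37C. The PDE inhibitor […] was present throughout; the assay buffer was DPBS with 0.05% BSA and 0.005% Tween 20.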
Sfp PPTase inh – inhibitors of Bacillus subtilis Sfp phosphopantetheinyl transferase; AID 1490; Potency, µM, inactives show max response, negative = inhibition, actives largely listed as inhibitors; Q9F4F7; 310,000 compounds, 3.5% hits; Biochemical Sfp PPTase activity, qHTS; active = well fitted inhibition curve with a large enough effect; inconclusive = small, poorly fitted or top-dose-only effect, or another doubt; inactive = no such curve, though single readings can be large or run the other way;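 also: the enzyme is Sfp with the accession as filed and its product quenches rhodamine fluorescence; potency is read from the fitted curve at half-maximal effect; 0% = enzyme reaction without inhibitor and -100% = no enzyme wells; top concentration of the series not given in the record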
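Step 1, compound plus 15 nM Sfp-PPTase, 15 min, room temperature. Step 2, add rhodamine-CoA (5 uM) and BHQ-2-YbbR (12.5 uM). Step 3, read 525/598 nm fluorescence at 0 and 30 min.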
TRPV1 potentiator – human TRPV1 potentiation. 320,000 compounds, 0.02% hits. AID 540277. Q8NER1. potentiation, % at 8.33 µM. TRPV1-expressing cells, Fluo-8 calcium influx, capsaicin EC20 potentiation; host cell line not named in the record; control for the full effect not named in the record; active means potentiation above 80%; inconclusive means 30% to 80%; inactive means below 30%; also: 0% is about no effect
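Cells expressing TRPV1 were dye-loaded with Fluo-8 and read kinetically: 10 s baseline, 3 min after compound (agonist portion), then 2 min after EC20 capsaicin (allosteric enhancer portion). Calcium-bound dye fluorescence at 480/520 nm.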
Active calls of the source: *; ? = inconclusive; nt = not tested or not shown; & = joins results of further samples; [ ] = dose if it differs, or a comment.

SMILES	gsp agonist	Menin MLL FP FL	ClpP mod	D2 potentiator	gsp antag	Sfp PPTase inh	TRPV1 potentiator
CCc1ccc(CNC(=O)Cn2nc(-c3ccccc3)ccc2=O)cc1	-14%[15.4 µM]	-1.6	4µM*	-10	4%	3%	12
O=C(O)CCCn1cc(NC(=O)c2cc(F)c(F)cc2Cl)cn1	-14%[15.4 µM]	4.0	nt	3	10%	-8%	6
CC1CCCCC1NC(=O)COC(=O)CNC(=O)c1cccc(F)c1 (stereo unspecified)	12%[15.4 µM]	-0.9	nt	-5	nt	7%	-10
CSCCC1C(=O)OC2(C)CC(C)(C)NC(=S)N12 (stereo unspecified)	-23%	0.3	-2.2%	8	-1%	8%	0
COC(=O)c1ccc(C(=O)OC)c(NC(=O)CN2CCC(C)CC2)c1	-1%[15.4 µM]	-1.1	nt	12	-15%	23%	4
O=c1[nH]c2ccccc2n1CCC1CCCCC1	?	2.0	0.7%	7	-27%	-8%	-8
COc1ccc(-n2nnc3c(=O)n(Cc4cc(C)ccc4C)cnc32)cc1	-7%	-2.5	-0.7%	2	8%	-8%	-11
CCN(CC)C(=O)c1sc(NC(=O)Cc2cccs2)c(C#N)c1C	?	1.8	0.1%	-14	9%	10%	2
COC(=O)C(Cc1ccc(O)cc1)NC(=O)c1ccc2c(c1)OCCO2 (stereo unspecified)	8%[15.4 µM]	-5.1	nt	-4	-1%	1%	-3
CSc1ccc(/C=N/NC(=O)COc2ccc(Br)cc2Cl)cc1	-49%[inhibitor]	4.4	124%	-8	7%	?	23
CCN(CC)C(=O)Cn1cc(S(=O)(=O)CC(=O)Nc2ccc(F)cc2)c2ccccc21	-5%[15.4 µM]	nt	0.4%	12	-4%	nt	nt
O=C(O)/C=C/C(=O)N(Cc1ccccc1)Cc1ccco1	-10%[15.4 µM]	2.5	nt	-4	8%	9%	-11
O=C1NC2(CCCCCC2)C(=O)N1Cc1ccc(F)cc1Cl	17%[15.4 µM]	0.2	nt	2	8%	2%	1
Cc1ccc(C(=O)NCC(=O)OCC(=O)c2ccc3c(c2)NC(=O)CO3)cc1	0%	-1.0	nt	-2	5%	7%	1
CC(C)N(Cc1ccccc1)C(=O)COC(=O)C1CCN(S(=O)(=O)c2ccc3c(c2)OCCO3)CC1	-30%[15.4 µM]	nt	nt	-26	-3%	nt	-3
CC(NC1CCCCC1)C(=O)NN=C(c1ccccc1)c1ccccc1 (stereo unspecified)	23%[15.4 µM]	-2.1	1.3%	-15	-11%	9%	?
C=CCOC(=O)C1=C(C)NC(SC)=C(C#N)C1c1ccc(OCC)cc1 (stereo unspecified)	-39%&-29%[inhibitor]	11	?	-15&-6	?	21%	17
CC1CCCCN1C(=O)C1CCCN(S(=O)(=O)c2cccc3nsnc23)C1 (stereo unspecified)	34%	nt	-1.1%	-5	3%	9%	-9
Cc1ccccc1CN1C(=O)c2ccccc2S1(=O)=O	1%	2.8	nt	-7	-8%	24%	-5
COc1cc(OC)c2cc(C(=O)N/N=C/c3ccccc3O)[nH]c2c1	-44%[inhibitor]	-4.7	-0.2%	-32	0%	13%	-4
Cc1cc2nc(SCC(=O)N(C)C)c3c(c2cc1C)CCCC3	-24%	2.2	-4.9%	-13	-11%	?	-8
CC(=O)Nc1ccc(C2=CC(=O)C[C@H](c3ccc(Cl)cc3)C2)cc1	-2%	nt	?	1	?	nt	1
O=[N+]([O-])c1cccc(/C=N/n2c(COc3ccccc3)n[nH]c2=S)c1	-13%	3.5	1.4%	3	-15%	56µM*	-9
FC(F)(F)c1cc(-c2cccs2)nc(-n2cc(Br)cn2)n1	-2%	-2.4	32µM*	3	-18%	6%	-7
CCN(CC)S(=O)(=O)c1cccc(NC(=O)COC(=O)c2n[nH]c(=O)c3ccccc23)c1	-3%[15.4 µM]	-3.3	nt	-7	-21%	-5%	-3
N#CC1(NC(=O)CSc2nnc(C3CC3)n2C2CC2)CCCCC1	-21%	nt	2.1%	-2	35%[activator]	nt	2
Cc1ccc(NS(=O)(=O)c2cccs2)c(C)c1	9%	-1.4	nt	-7	3%	1%	12
COc1ccccc1NC(C)C(=O)Nc1ccc(C(C)=O)cc1 (stereo unspecified)	-2%	-0.4	2.9%	4	10%	-9%	-8
CSc1nc2nccc(-c3ccc(Oc4ccccc4)cc3)n2n1	10%	4.5	28µM*	-1	?	-29%	-19
CC1(C)Cc2c(sc3nnn(CC(=O)Nc4ccccc4)c(=O)c23)CO1	-24%[15.4 µM]	0.2	-0.3%	3	-2%	-3%	7
O=C(NCCc1nc2ccccc2[nH]1)/C(=C/c1ccc2c(c1)OCO2)NC(=O)c1ccc(Cl)cc1Cl	-3%	6.3	111%	-12	-25%	?	2
Cc1c(C(=O)N(C)C)c2cc(Cl)ccc2n1O	-3%	-0.8	nt	7	-1%	3%	7
Cc1sc2nc(-c3cccs3)oc(=O)c2c1C	-44%[inhibitor]	-6.3	26%	-6	7%	0%	0
COc1cc(Cl)c(C)cc1NC(=O)COC(=O)CCc1nc2ccccc2c(=O)[nH]1	-30%[15.4 µM]	nt	nt	-20	6%	nt	28
COc1ccc2[nH]c(=O)c(CN(CCCN3CCOCC3)C(=O)NCc3ccccc3)cc2c1	-2%	0.2	16µM*	-14	-5%	24%	0
CN(Cc1ccccc1)C(=O)c1ccc2c(c1)OCO2	-22%	0.2	-2.6%	-8	-4%	12%	?
COc1cc(/C=N/Nc2nc3ccccc3[nH]2)cc(OC)c1O	9%	5.2	-12%	4	-10%	14µM*	-3
CCOc1ccc(NC(=O)CN(C)C(=O)Cc2sc(C)nc2-c2ccc(F)cc2)cc1OCC	7%	nt	1.3%	-20	6%	nt	-10
Fc1ccc(-c2csc(Nc3ccccn3)n2)c(F)c1	-3%	3.4	-3.6%	-4	-14%	-12%	-9
C=CCn1c(SCC(=O)N(CC)C2CCS(=O)(=O)C2)nc2ccccc2c1=O (stereo unspecified)	29%	1.1	3.3%	-9	-6%	18%	4
CCC(=O)Nc1ccc2c(c1)ncn2-c1ccccc1C	-48%[inhibitor]	-0.8	-0.1%	-5	15%	17%	4
C=CCN(C(=O)CNC(=O)c1ccco1)C(C(=O)NC1CCCCC1)c1cccnc1 (stereo unspecified)	26%[15.4 µM]	0.7	-1.1%	-10	-17%	7%	8
CC(Sc1nc(N2CCOCC2)c2c(c1C#N)CC(C)(C)OC2)C(=O)Nc1ccccc1 (stereo unspecified)	-6%	3.2	25%	-7	-3%	-13%	-9
O=C(O)c1cc(S(=O)(=O)N2CCCCC2)ccc1Cl	3%[15.4 µM]	0.6	-2.4%	-6	-8%	10%	5
COc1cccc(OC)c1C(=O)NCC12CC3CC(C1)CC(CNC(=O)c1c(OC)cccc1OC)(C3)C2	?	2.5	-0.3%	-4	?	24%	-3
COc1ccc(Cl)cc1-c1csc(N)n1	-121%[inhibitor]	-0.4	-7.6%	-5	0%	-12%	?
CC(=O)c1cccc(N(CC(=O)N2CCCCC2)S(C)(=O)=O)c1	-26%	2.1	-2.0%	3	3%	5%	6
COc1cc(CCC(=O)N2CCN(c3ccccc3Cl)CC2)cc(OC)c1OC	1%[15.4 µM]	6.5	nt	-7	-2%	2%	8
CCOc1ccccc1CN1CCN(C2CCOCC2)CC1CCO (stereo unspecified)	-1%	3.1	nt	-1	3%	3%	0
CCN(CC)C(=O)CSc1nc(-c2ccccc2)cc(=O)[nH]1	-1%[15.4 µM]	2.5	1.6%	-6	-32%	-3%	3
CC1=NN(C(=O)c2c(Br)cnn2C)C(O)(C(F)(F)F)C1 (stereo unspecified)	-4%	-0.4	1.2%	-23	7%	5%	-6
CSC1=N/C(=C\c2cccc(Cl)c2)C(=O)N1N(C)C	-5%	4.4	0.1%	-16	-19%	-11%	3
CN(C)S(=O)(=O)c1ccc(C(=O)NNC(=O)c2ccccc2-n2cccc2)cc1	?	nt	-2.4%	-9	-2%	nt	1
O=C(O)CCC(NC(=O)c1ccc(Cl)cc1)C(=O)O (stereo unspecified)	0%[15.4 µM]	0.6	nt	-8	8%	12%	-5
O=C(O)CN1C(=O)/C(=C\c2ccccc2OCc2ccc(Cl)cc2Cl)SC1=S	-31%[inhibitor]	11	nt	-4	-13%	?	?
O=C(CSc1ccccn1)Nc1nc2ccc(Br)cc2s1	-14%	4.4	-0.9%	-9	2%	-28%	0
C=CCc1ccc(OCCCN2CCCC(C)C2)c(OC)c1 (stereo unspecified)	13%	1.0	1.0%	-10	-3%	?	2
Cn1nccc1C(=O)OCC(=O)Nc1ccccc1Cl	-7%	0.7	nt	-7	8%	18%	-10
Cc1ccc(OCC(=O)Nc2nnc(S(=O)(=O)N3CCCCC3)s2)cc1	-47%[inhibitor]	nt	-2.4%	3	-4%	0%	?
CC1CC1C(=O)N(C)CC(=O)Nc1ccc(Cl)c(C(F)(F)F)c1 (stereo unspecified)	-3%[15.4 µM]	nt	-0.4%	-8	-2%	nt	-7

New compounds follow:
SMILES	gsp agonist	Menin MLL FP FL	ClpP mod	D2 potentiator	gsp antag	Sfp PPTase inh	TRPV1 potentiator
CCOc1ccc(NC(=O)Nc2nnc(CC(=O)NCc3ccccc3)s2)cc1	-1%	0.2	nt	-2	6%	-2%	5
CSc1ncc(Cl)c(C(=O)NCc2cccnc2)n1	15%[15.4 µM]	-2.7	-0.5%	-5	6%	-2%	-1
Cc1nc(SCC(=O)Nc2cc(S(=O)(=O)N3CCOCC3)ccc2Cl)nc(C)c1C	?	nt	-3.5%	-1	11%	nt	-5
Cc1c(NS(=O)(=O)c2cc(C(=O)Nc3ccc(F)cc3Cl)ccc2Cl)c(=O)n(-c2ccccc2)n1C	?	nt	-1.2%	14	-12%	nt	nt
COc1ccc(/C=C(\C#N)C(=O)OCC(=O)Nc2ccc(-c3nc4ccc(C)cc4s3)cc2)cc1	9%	-2.8	3.8%	-2	13%	17%	5
C#CCOC(=O)/C(=C/c1ccc(F)cc1)NC(C)=O	7%[15.4 µM]	8.6	-1.6%	-6	12%	16%	?
CCCCC/C=C/C1=CC(=O)C[C@H](c2ccc3c(c2)OCO3)C1	nt	nt	-0.6%	-10	-8%	nt	-1

Compounds as they come. Share with any hit: about 5.1%.
